# Screening data (PubChem BioAssay)
# Rce1 inh: blocks yeast Ras-converting enzyme; Q03530; yeast membranes, quenched prenylated peptide cleavage fluorescence; calls only; 0.27% of 290,000 active;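 active = fall in fluorescence gain of 50% or more versus controls, with final raw signal at or below 3038400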;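 note: plate controls were neutral control wells for no effect and wells lacking membranes for full effect; tested at 10 µM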
# Target sequence (Q03530 whole entry, looked up): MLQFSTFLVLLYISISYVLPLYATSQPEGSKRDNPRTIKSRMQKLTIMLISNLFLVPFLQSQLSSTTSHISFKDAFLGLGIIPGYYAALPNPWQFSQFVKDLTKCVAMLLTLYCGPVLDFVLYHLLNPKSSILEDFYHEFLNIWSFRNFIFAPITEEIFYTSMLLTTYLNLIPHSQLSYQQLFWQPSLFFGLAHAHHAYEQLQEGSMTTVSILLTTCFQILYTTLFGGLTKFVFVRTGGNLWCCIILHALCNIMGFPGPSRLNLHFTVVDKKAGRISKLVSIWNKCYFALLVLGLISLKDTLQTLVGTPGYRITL
# CSC inhib: cancer stem cell inhibition; AID 2717; cancer stem cell-like cells viability, luminescence; 1.1% of 300,000 active; inhibition, % at 7.5 µM;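 active = mean at 75% or more and at least half the replicates too; tested in HMLE shEcad cells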;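 note: 0% = median of negative and 100% = median of positive control wells; the first replicate is given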
# eIF4H inh: inhibitors of RNA binding by human eIF4H; eIF4H fluorescence polarization binding assay; inhibition, % at 35 µM; 0.94% of 290,000 active; AID 2012;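 active = 50% or more with normal probe brightness, or confirmed in later tests; about a fifth of its hits are not listed in these tables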;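 note: calls also rest on retests at 20 µM and on dose response follow-up; 0% = protein and probe with vehicle and 100% = probe without protein; strong numbers were not always called active; many hits fall short of the cut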
# MT1-MMP act inh: blocks activation of human MT1-MMP. GFP/RFP ratio change, % at 20 µM. AID 651647. HT1080 RFP-PRO-GFP cells, GFP/RFP ratio fluorescence, overnight; percent of plate control window, DMSO zero. 0.061% of 360,000 active;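 active = GFP/RFP ratio change of at least 30% with cell ATP level not reduced by more than half and red fluorescence within 50% of control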; note: strong numbers were not always called active
#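 Material: RFP-PRO-GFP reporter HT1080 cells. Dosing: single-point 20 µM compound, 1% DMSO. Controls: DMSO and RFP-L50D-GFP cell wells. Timing: cells overnight before dosing, compound overnight, 37 °C, 5% CO2. Measure: GFP/RFP fluorescence ratio.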
# Yeast UUG start: alters start codon recognition fidelity in yeast. AID 602363. 0.13% of 350,000 active. S. cerevisiae UUG-firefly luciferase reporter, luminescence/redox ratio. activity score, % at 18.7 µM;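 active = replicate mean at a twofold rise or more, about +100% in these data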;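 note: firefly luciferase made from a UUG start codon reports start codon fidelity; reporter light over untreated wells divided by growth signal over untreated wells; some hits fall short of that in this replicate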
# PABP FP inh: PABP-poly(A) binding inhibition; inhibition, % at 35 µM; 1% of 290,000 active; PABP-poly(A) RNA binding, fluorescence polarization; P11940;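 active = 50% or more with normal probe brightness, or confirmed in later tests; about a fifth of its hits are not listed in these tables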;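 note: calls also rest on retests at 20 µM and on dose response follow-up; controls were probe without protein and protein plus probe with vehicle; some compounds called inactive have numbers as strong as hits; many hits fall short of the cut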
# Target sequence (P11940 whole entry, looked up): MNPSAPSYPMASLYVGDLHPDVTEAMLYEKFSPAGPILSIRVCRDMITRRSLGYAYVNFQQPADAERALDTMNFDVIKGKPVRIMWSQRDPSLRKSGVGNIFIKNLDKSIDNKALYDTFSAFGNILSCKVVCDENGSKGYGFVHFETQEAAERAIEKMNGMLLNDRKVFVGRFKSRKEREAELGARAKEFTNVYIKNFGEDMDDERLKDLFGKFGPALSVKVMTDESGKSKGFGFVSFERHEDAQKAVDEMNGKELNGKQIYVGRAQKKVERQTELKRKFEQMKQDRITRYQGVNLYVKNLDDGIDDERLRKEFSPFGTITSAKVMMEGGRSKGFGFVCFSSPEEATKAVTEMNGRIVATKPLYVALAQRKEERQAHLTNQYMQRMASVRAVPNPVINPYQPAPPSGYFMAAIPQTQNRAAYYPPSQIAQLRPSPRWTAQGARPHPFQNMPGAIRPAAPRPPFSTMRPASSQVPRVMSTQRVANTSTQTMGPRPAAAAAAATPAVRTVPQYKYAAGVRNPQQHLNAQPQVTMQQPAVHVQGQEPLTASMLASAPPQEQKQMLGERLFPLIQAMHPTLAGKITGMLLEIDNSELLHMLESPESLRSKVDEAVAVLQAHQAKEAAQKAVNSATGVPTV
# Env fusion inh: blocks HIV Env-driven cell-cell fusion | HeLa-JRFL Env/CEM21 cell fusion, luciferase | inhibition, % at 12.3 µM | 1.1% of 360,000 active;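 active = mean replicate inhibition score of at least 50 and every replicate individually at or above 50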;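 note: 0% = plate neutral controls and 100% = maraviroc near 300 nM; one replicate is shown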
# eIF4H inh retest: second read-out of eIF4H inh, no call of its own (marks repeat the call); inhibition, %; compound at 20 µM; confirmation average;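 mean of two retest wells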
# PABP FP inh retest: also measured in PABP FP inh; calls as there; inhibition, %; compound at 20 µM; confirmation repeats;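 mean of two retest wells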
# MT1-MMP act inh RFP: second read-out of MT1-MMP act inh, no call of its own (marks repeat the call); RFP signal change, %; measured here: RFP expression control read;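 0 = vehicle wells; hits needed this value within 50% of zero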
# Starred values were filed as active, the others as inactive; i = inactive; . = not tested or not shown; & = joins results of further samples. These rows are one share of the data, so the mix of outcomes need not match the whole.
SMILES,Rce1 inh,CSC inhib,eIF4H inh,MT1-MMP act inh,MT1-MMP act inh RFP,Yeast UUG start,PABP FP inh,Env fusion inh,others
COc1ccc(CNC(=O)c2c(O)c3cccc4c3n(c2=O)CCC4)cc1,i,.,-5,2,3,-14,-2,.,
COC(OC)C(C)NC(=O)NC(=O)c1ccccc1Cl (stereo not drawn),i,-6,2,-1,2,.,-2,15,
COc1ccc(C(=O)Nc2ccccc2C(N)=O)cc1,.,.,5,9,1,-17,9,-91,
CN(C(=O)COC(=O)c1ccccc1SCC(=O)N1CCCC1)C1CCS(=O)(=O)C1 (stereo not drawn),i,0,-7,-1,3,-9,0,-241,
O=C1Nc2ccccc2Nc2ncccc21,i,0,-7,2,9,-26,-1,.,
COc1cccc(/C=C2\N=C(c3c(-c4ccccc4)noc3C)OC2=O)c1OC,i,-2,1,2,5,3,3,7,
CN(C)c1ccccc1-c1cc(NC=O)c2ncc(-c3cccc(C(F)(F)F)c3)n2c1,.,.,.,-53,4,5,.,-15,
NS(=O)(=O)c1ccc(CNC(=O)c2ccc(Cl)c([N+](=O)[O-])c2)cc1,i,-9,-6,5,5,.,-1,6,
CN(C=C1C(=O)CC(C)(C)CC1=O)CCN1CCNCC1,i,-3,-6,0,8,0,-5,.,
O=C(Cn1cnc2c(OCc3ccccc3)ncnc21)NCc1ccccn1,.,.,.,0,1,-23,.,2,
O=C(C1=COCCO1)N1CCN(C(c2ccccc2)c2ccccc2)CC1,i,2,-6,-4,-2,-9,5,-2,
Cc1ccccc1C(=O)c1c[nH]c(C(=O)NCC2CCCO2)c1 (stereo not drawn),i,-9,16,0,2,-21,-2,.,
O=S1(=O)CC(N2CCC(c3ccccc3)CC2)CN1C1CCCCC1 (stereo not drawn),.,.,.,3,2,2,.,-39,
Cc1cc2ccccc2n2c(SCC(=O)N3CCc4ccccc4C3)nnc12,i,12,4,1,6,0,-2,-19,
COCCCNC(=O)CS(=O)(=O)Cc1nc(-c2cccc(OC)c2)oc1C,i,11,-9,2,0,0,6,-45,
C[C@H]1CN([C@@H](C)CO)S(=O)(=O)c2ccc(Br)cc2O[C@H]1CN(C)C(=O)c1cccnc1,.,.,.,2,2,-7&-6,.,-76,
Cc1ccc(S(=O)(=O)CCc2nnc(NC(=O)c3cnccn3)s2)cc1,.,11,7,1,4,-11,6,.,
CCOCCCNS(=O)(=O)c1cc2[nH]c3c(c2cc1C)C(=O)CC(C)(C)C3,i,-4,-4,6,-4,-5,6,-3,
CCCCC(=O)N(Cc1ccc(F)cc1)C1CCS(=O)(=O)C1 (stereo not drawn),i,-7,-7,3,8,3,-2,2,
COc1ccc(OC)c(C2CC(=O)N3CN(c4cccc(Cl)c4C)CSC3=C2C#N)c1 (stereo not drawn),i,8,11,-1,-6,-9,68,.,eIF4H inh retest=18;PABP FP inh retest=43
COc1ccccc1C(=O)OCC(=O)Nc1cc(S(=O)(=O)N2CCOCC2)ccc1N1CCCC1,i,6,-11,2,1,.,-4,2,
Cc1ccc(CNC(=O)Nc2ccc(F)cc2F)n1C,i,-21,-1,-3,1,-12,12,-1,
COc1ccc(-c2csc(NC3OC(=O)c4ccccc43)n2)cc1 (stereo not drawn),i,.,2,-5,-10,-6,0,3,
Cc1onc(-c2ccccc2)c1C(=O)Nc1ccncc1,i,7,-4,-4,-6,-9,-14,-91,
CC1=C(c2ccccc2)SC2=NCCN21,i,1,3,-2,-4,-2,-2,-2,

# Overlap with the part before: 5 compounds, then new ones.
SMILES,Rce1 inh,CSC inhib,eIF4H inh,MT1-MMP act inh,MT1-MMP act inh RFP,Yeast UUG start,PABP FP inh,Env fusion inh,others
COc1ccccc1C(=O)OCC(=O)Nc1cc(S(=O)(=O)N2CCOCC2)ccc1N1CCCC1,i,6,-11,2,1,.,-4,2,
Cc1ccc(CNC(=O)Nc2ccc(F)cc2F)n1C,i,-21,-1,-3,1,-12,12,-1,
COc1ccc(-c2csc(NC3OC(=O)c4ccccc43)n2)cc1 (stereo not drawn),i,.,2,-5,-10,-6,0,3,
Cc1onc(-c2ccccc2)c1C(=O)Nc1ccncc1,i,7,-4,-4,-6,-9,-14,-91,
CC1=C(c2ccccc2)SC2=NCCN21,i,1,3,-2,-4,-2,-2,-2,
Nc1ncnc2c1ncn2[C@H]1CC[C@@H](CO)O1,.,-11,.,1,7,-9,.,.,
CC(C)c1ccc(CNC(=O)CSCC(=O)Nc2ccc3ccccc3c2)cc1,i,11,-7,-3,-3,-7,-5,49,
O=C1C(c2ccncc2)=C(O)c2ccccc21,i,-11,-8,1,1,-43,-9,.,
O=C(O)c1ccc(S(=O)(=O)N2CCN(c3ccccn3)CC2)cc1,i,-14,-2,4,3,-4,-2,-9,
Cc1ccc(C)c(NC(=O)c2cnn3ccccc23)c1,i,9,0,2,4,-8,8,20,
CSCC(=O)NC1CCCc2c1cnn2-c1cc(F)cc(F)c1 (stereo not drawn),i,-4,-13,-4,-2,-15,-6,-21,
C[C@H](NC(=O)CCn1nnc2ccccc2c1=O)C(=O)O,i,-11,-13,-1,1,.,-1,0,
Cc1nc(NC(=O)COC(=O)CCS(=O)(=O)c2ccccc2Cl)c(Cl)cc1Cl,i,-10,-5,7,4,.,-12,-31,
Cc1cc2c(c(/C=C/C(=O)c3ccccc3)c1)OC1(C=C2)Oc2ccccc2C(=O)N1C (stereo not drawn),i,138*,-6,-16,-24,.,-12,-299,
CCOC(=O)C(=O)Nc1ccc2c(c1)OCO2,i,.,3,-8,3,-20,3,-10,
O=C(C1CCN(S(=O)(=O)Cc2ccccc2)CC1)N1CCCc2ccccc21,i,.,-8,-3,1,-2,-12,.,
CC1(C)c2ccccc2-n2c1cc1oc(=O)cc(O)c1c2=O,i,22,-3,-2,0,-4,5,-194,
O=C(CSc1ncccn1)Nc1cc(Cl)ccc1[N+](=O)[O-],i,7,-1,1,1,.,3,-6,
CCOC(=O)c1ccc(NC(=O)/C=C/c2cccs2)cc1,i,13,-4,-2,-11,.,-7,-1,
CC(C(=O)Nc1cccc([N+](=O)[O-])c1)N(c1ccccc1)S(C)(=O)=O (stereo not drawn),i,-2,3,9,5,.,-5,15,
Cc1ccc(C(=O)N(Cc2sccc2C)C2CCS(=O)(=O)C2)cc1 (stereo not drawn),i,-6,-2,-4,4,-13,7,10,
Cc1ccc(S(=O)(=O)N2CCCC(C(=O)Nc3cccnc3)C2)cc1 (stereo not drawn),i,-4,-2,-4,-7,-19,-3,-9,
CCn1c(COc2ccccc2C)nnc1SCC(=O)OC,i,-11,12,0,3,-1,-9,3,
O=C(CSc1ncn[nH]1)OCN1C(=O)c2ccccc2C1=O,i,5,5,2,3,-19,-8,-68,
COc1ccc(C(CNC(=O)Cc2ccc3ccccc3c2)N(C)C)cc1 (stereo not drawn),i,-7,14,-2,2,-17,-3,0,
FCCCOc1ccc(/C=N/OCc2ccc(Cl)cc2Cl)cc1,i,11,-3,2,-2,1,-9,.,
CCOC(=O)c1c(NC(=O)CC2Sc3ccc(C(F)(F)F)cc3NC2=O)sc(C)c1C (stereo not drawn),i,.,-8,1,1,.,-7,-6,
COc1cc(O)c(C(CC(=O)N2CCCC(C)C2)c2ccc3c(c2)OCO3)c(OC)c1 (stereo not drawn),i,-12,2,-1,-3,-19,3,6,
COc1cc2cnc(-c3ccccc3)c(-c3cc(OC)c(OC)c(OC)c3)c2cc1OC,.,16,.,1,-4,16,.,-55,
Nn1c(SCC(=O)N2CCc3ccccc3C2)nnc1-c1cccs1,i,-12,-3,-1,0,-16,-6,.,
# New compounds follow:
SMILES,Rce1 inh,CSC inhib,eIF4H inh,MT1-MMP act inh,MT1-MMP act inh RFP,Yeast UUG start,PABP FP inh,Env fusion inh,others
N[C@@H](Cc1ccccc1)c1nnc(SCc2ccccc2F)o1,i,-20,-4,3,3,-8,-20,-64,
Cc1nn(-c2ccccn2)c2c1C(=O)C(Br)CC2 (stereo not drawn),.,.,11,0,3,-27,2,.,
CC(=O)Nc1ccc(S(=O)(=O)N2CCCCC2C(=O)O)cc1 (stereo not drawn),i,4,6,-2,0,.,-7,19,
CCOC(=O)CN1C(=O)S/C(=C/c2cc(C)n(C)c2C)C1=O,.,-2,.,4,7,-11,.,-98,
COc1cc(/C=C(\C#N)C(=O)Nc2ccccc2)ccc1OCCN1CCOCC1,i,-44,-11,0,0,-17,-10,-1,
Cc1ccnc(NS(=O)(=O)c2ccc(NC(=O)C3CC3)cc2)n1,i,-8,0,-4,-3,-23,2,7,
Cc1cc(N2CCN(C)CC2)nc2ccc(NC(=O)c3ccccc3F)cc12,i,-9,-3,2,2,-16,11,5,
Cc1ccc(S(=O)(=O)N2CCN=C2SCc2ccc(Cl)c(Cl)c2)cc1,i,68,10,5,9,.,-2,4,
COc1ccccc1CC(=O)NCC1CCCO1 (stereo not drawn),i,.,-5,8,3,-2,8,.,
COc1ccc(CNCCSc2nnnn2C)cc1OC,i,-8,-9,-2,1,-9,0,-42,
CCOC(=O)CSc1nc(-c2ccc3c(c2)OCO3)ccc1C#N,i,10,0,6,6,-13,-4,.,
CCCCC(=O)N/C(N)=N/c1nc2ccccc2o1,i,19,-10,6,-10,.,1,-86,
CCOc1ccc(NC(=O)CN2CCC(n3cnc4cc(F)ccc43)CC2)cc1,i,4,-3,2,-5,.,7,29,
CCC(=O)N1c2ccccc2NC2=C(C(=O)CC(C)(C)C2)C1c1ccc(O)c(OC)c1 (stereo not drawn),i,-13,0,1,5,-19,1,2,
Cn1c(CNC(=O)CCNC(=O)c2ccc(F)c(F)c2)cc(=O)n(C)c1=O,i,-12,-4,-1,1,-15,0,0,
CCOC(=O)Cc1csc(NC(=O)C2CCCN(S(=O)(=O)c3cnc[nH]3)C2)n1 (stereo not drawn),.,-5,-4,-3,3,-8,0,-3,
CCCc1ccc2ccc3ccccc3c2n1,.,.,.,4,3,-16,.,9,
Cc1cc(C)nc(-n2nc(C)c3c(C(F)F)cc(C)nc32)n1,i,-5,-5,-3,3,-23,2,.,
O=C(c1cc2ccccc2c(=O)o1)N1CCCC1,i,-7,2,.,.,.,4,7,
O=C(Cc1c[nH]c2ccccc12)NCc1ccc2c(c1)OCO2,i,-15,-6,-11,-8,-21,-6,.,
Fc1ccc(C2c3cccn3CCN2C(=S)Nc2cccc(F)c2)cc1 (stereo not drawn),i,-3,2,1,-4,-7,-14,19,
O=C(O)c1cnn2cc(-c3[nH]ncc3[N+](=O)[O-])cnc12,i,-21,6,0,9,.,18,24,
CCOc1cc(C=O)ccc1OCCSc1ccc(Cl)cc1,i,3,-2,-7,-5,-14,0,17,
CCOC(=O)c1c(C)[nH]c(C)c1S(=O)(=O)N(C)CC(=O)Nc1ccccc1OC,i,-17,-2,-1,-2,-21,1,37,
CC(=O)OC1CC(n2ccc(NC(=O)c3ccccc3)nc2=O)OC1CO (stereo not drawn),i,-8,-2,4,0,-7,3,.,
COc1ccc(NC(=O)C(NC(=O)Cc2cccs2)c2ccc(C)cc2)cc1 (stereo not drawn),i,3,-4,0,5,0,-6,.,
CC(C)(C)n1nnnc1C(c1ccc(F)cc1)N1CCN(Cc2ccc3c(c2)OCO3)CC1 (stereo not drawn),i,-13,1,-5,1,-6,1,-96,
COC(=O)COc1cc(C)cc2oc(=O)c(CC(=O)OC)c(C)c12,i,-5,-4,-2,1,-2,11,.,
COc1cc(/C=N/N2C(=O)C3C4c5ccccc5C(c5ccccc54)C3C2=O)ccc1O (stereo not drawn),i,19,-4,0,-1,-10,13,-34,
COc1ccccc1NC(=O)Cn1ccn(-c2cccc3ccccc23)c(=O)c1=O,i,7,.,0,-3,-6,.,-12,
